Screens (PubChem)
UUG fidelity = alters start codon recognition fidelity in yeast | activity score, % at 18.7 µM | AID 602363 | S. cerevisiae UUG-firefly luciferase reporter, luminescence/redox ratio | 0.13% of 350,000 active;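 active = replicate mean at a twofold rise or more, about +100% in these data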;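 also: firefly luciferase made from a UUG start codon reports start codon fidelity; reporter light over untreated wells divided by growth signal over untreated wells; some hits fall short of that in this replicate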
CSC inhib = cancer stem cell inhibition; cancer stem cell-like cells viability, luminescence; inhibition, % at 7.5 µM; 1.1% of 300,000 active;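 active = mean at 75% or more and at least half the replicates too; tested in HMLE shEcad cells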;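 also: 0% = median of negative and 100% = median of positive control wells; the first replicate is given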
eIF4H FP inh = inhibitors of RNA binding by human eIF4H; Q15056; eIF4H fluorescence polarization binding assay; inhibition, % at 35 µM; 0.94% of 290,000 active;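 active = 50% or more with normal probe brightness, or confirmed in later tests; about a fifth of its hits are not listed in these tables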;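 also: calls also rest on retests at 20 µM and on dose response follow-up; 0% = protein and probe with vehicle and 100% = probe without protein; strong numbers were not always called active; many hits fall short of the cut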
Env fusion inh = blocks HIV Env-driven cell-cell fusion; 1.1% of 360,000 active; inhibition, % at 12.3 µM; HeLa-JRFL Env/CEM21 cell fusion, luciferase; AID 651610;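 active = mean replicate inhibition score of at least 50 and every replicate individually at or above 50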;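 also: 0% = plate neutral controls and 100% = maraviroc near 300 nM; one replicate is shown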
Rce1 inh = inhibitors of yeast Ras-converting enzyme | calls only | 0.27% of 290,000 active | AID 2563 | Q03530 | yeast membranes, quenched prenylated peptide cleavage fluorescence;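 active = fall in fluorescence gain of 50% or more versus controls, with final raw signal at or below 3038400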;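 also: plate controls were neutral control wells for no effect and wells lacking membranes for full effect; tested at 10 µM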
Target sequence (Q03530 whole entry, looked up): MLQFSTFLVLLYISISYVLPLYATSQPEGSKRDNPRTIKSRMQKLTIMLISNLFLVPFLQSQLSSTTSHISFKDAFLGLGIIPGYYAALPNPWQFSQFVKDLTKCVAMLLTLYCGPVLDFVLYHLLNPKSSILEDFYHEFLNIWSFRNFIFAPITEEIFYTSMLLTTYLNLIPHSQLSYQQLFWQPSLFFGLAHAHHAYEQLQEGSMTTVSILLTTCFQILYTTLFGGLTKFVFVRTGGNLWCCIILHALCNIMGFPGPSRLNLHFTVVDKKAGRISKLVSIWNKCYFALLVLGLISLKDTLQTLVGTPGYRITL
MT1-MMP act inh = MT1-MMP (human) activation inhibition. P50281. HT1080 RFP-PRO-GFP cells, GFP/RFP ratio fluorescence, overnight; percent of plate control window, DMSO zero. GFP/RFP ratio change, % at 20 µM. 0.061% of 360,000 active. AID 651647;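 active = GFP/RFP ratio change of at least 30% with cell ATP level not reduced by more than half and red fluorescence within 50% of control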; also: strong numbers were not always called active
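Compound: 20 µM single dose, 1% DMSO / System: HT1080 RFP-PRO-GFP cells / Controls: DMSO and RFP-L50D-GFP cell wells / Read-out basis: GFP/RFP fluorescence ratio / Schedule: overnight compound exposure at 37 °C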
PABP polyA inh = blocks human PABP binding to poly(A) RNA | P11940 | fluorescence polarization | inhibition, % at 35 µM | 1% of 290,000 active | AID 2014;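 active = 50% or more with normal probe brightness, or confirmed in later tests; about a fifth of its hits are not listed in these tables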;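 also: calls also rest on retests at 20 µM and on dose response follow-up; controls were probe without protein and protein plus probe with vehicle; some compounds called inactive have numbers as strong as hits; many hits fall short of the cut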
MT1-MMP act inh RFP = recorded beside MT1-MMP act inh, whose call it bears; RFP signal change, %; measured here: RFP expression control read;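 0 = vehicle wells; hits needed this value within 50% of zero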
Starred values were filed as active, the others as inactive; i = inactive; . = not tested or not shown.

Screens by letter – A = UUG fidelity; B = CSC inhib; C = eIF4H FP inh; D = Env fusion inh; E = Rce1 inh; F = MT1-MMP act inh; G = MT1-MMP act inh RFP; H = PABP polyA inh
CCn1c(SCC(=O)N2CCOCC2)nnc1-c1ccco1
  A = -16 | B = 5 | C = -6 | D = 3 | E = i | F = -3 | G = 4 | H = 4

CC(C)Oc1cccc(NC(=O)C2(C)CCN2C(=O)C(C)C)c1 (stereo unspecified)
  A = 6 | B = . | C = . | D = 11 | E = . | F = -2 | G = 1 | H = .

COc1ccc(-n2c(SC(CN3CCCCC3)CN3CCCC3=O)nc3ccccc3c2=O)cc1 (stereo unspecified)
  A = -20 | B = -11 | C = -4 | D = -76 | E = i | F = 10 | G = -11 | H = -4

COCCNC(=O)CN(C(=O)CCC(=O)Nc1ccccn1)c1ccc(C)c(C)c1
  A = -7 | B = -6 | C = 0 | D = 7 | E = i | F = -1 | G = 1 | H = -3

CCOc1ccc(NC(=O)CN2CCN(CC(=O)Nc3ccc(F)c(F)c3)CC2)cc1
  A = 2 | B = . | C = -8 | D = . | E = i | F = -1 | G = -1 | H = 6

Cc1ccc(S(=O)(=O)N2CCN(C(=O)c3cccs3)CC2)cc1
  A = . | B = . | C = -12 | D = 7 | E = i | F = 3 | G = 0 | H = 3

CCn1c(SCc2cccc(C(=O)O)c2)nnc1-c1ccccc1
  A = -6 | B = -12 | C = -5 | D = . | E = i | F = 2 | G = 5 | H = -4

CC1CCCN(S(=O)(=O)c2cc(Cl)ccc2Cl)C1 (stereo unspecified)
  A = -2 | B = -5 | C = 8 | D = -41 | E = i | F = -1 | G = 3 | H = 5

COc1ccccc1N1CCN(Cc2cc(=O)c(OCC#N)co2)CC1
  A = -15 | B = -13 | C = -3 | D = -1 | E = i | F = 3 | G = 3 | H = -1

C=CCn1c(-c2ccccc2[N+](=O)[O-])n[nH]c1=S
  A = . | B = -3 | C = 0 | D = 12 | E = i | F = 2 | G = 6 | H = 7

O=C(COC(=O)c1cc(Br)ccc1Cl)NC1CC1
  A = . | B = . | C = -2 | D = 12 | E = . | F = 4 | G = 9 | H = 8

COCC(C)NC(=O)c1ccccc1OC(C)=O (stereo unspecified)
  A = -12 | B = -4 | C = -2 | D = -33 | E = i | F = -1 | G = 0 | H = -12

Cc1cc(C)n(-c2ccc(C(=O)Nc3cccnc3)cc2)n1
  A = -14 | B = -11 | C = 10 | D = -10 | E = i | F = 0 | G = 3 | H = -3

O=C(Nc1cccc(S(=O)(=O)N2CCCCC2)c1)C1CC1
  A = 3 | B = -6 | C = . | D = . | E = . | F = 4 | G = -4 | H = .

Cc1ccc2[nH]c(C(=O)O)c(NC(=O)[C@@H]3C[C@@H]3c3ccccc3)c2c1
  A = . | B = -1 | C = -1 | D = 14 | E = i | F = -3 | G = 2 | H = 2

N#CCCN(C(=O)Nc1ccc(Cl)c(Cl)c1)c1ccccc1
  A = . | B = -5 | C = 6 | D = 49 | E = i | F = 5 | G = 3 | H = -2

O=C(NCc1ccc2c(c1)OCO2)Nc1ccc(F)cc1
  A = -10 | B = -2 | C = 2 | D = -11 | E = i | F = 2 | G = 1 | H = 3

COC(=O)c1sccc1NC(=O)Nc1cc(OC)ccc1OC
  A = 5 | B = -16 | C = 9 | D = 6 | E = i | F = 0 | G = 2 | H = -2

CCOc1cccc(C2/C(=C(/O)c3ccc4c(c3)CC(C)O4)C(=O)C(=O)N2Cc2ccncc2)c1 (stereo unspecified)
  A = . | B = -5 | C = . | D = 12 | E = i | F = -5 | G = -2 | H = .

COc1ccccc1-c1n[nH]c(=S)n1Cc1ccco1
  A = . | B = -7 | C = 4 | D = . | E = i | F = . | G = . | H = 2

O=C(c1cc(Cl)ccc1F)N1CCCC(Nc2ccc3c(c2)OCCO3)C1 (stereo unspecified)
  A = 10 | B = -16 | C = -11 | D = 2 | E = i | F = -1 | G = 0 | H = 7

CCc1ccccc1N(CC(=O)N1CCCCCC1)S(C)(=O)=O
  A = -4 | B = -17 | C = 8 | D = -11 | E = i | F = 0 | G = 4 | H = -10

COc1cc(C)c(C(C)C)cc1S(=O)(=O)NCCCn1ccnc1
  A = -10 | B = . | C = 4 | D = -122 | E = i | F = 3 | G = -1 | H = -5

O=C(OCCCN1CCCC1)C1(c2ccccc2)CCCC1
  A = -15 | B = -17 | C = -19 | D = -2 | E = i | F = 1 | G = 1 | H = -3

C/C(=N\NC(=O)c1nnn(-c2nonc2N)c1CSc1ccccc1)c1ccco1
  A = -17 | B = -2 | C = . | D = 0 | E = i | F = -1 | G = 4 | H = .

COC(=O)c1ccc(C(=O)OC)c(NC(=O)CSc2nnc(-c3ccccc3Cl)o2)c1
  A = -23 | B = -8 | C = . | D = . | E = i | F = 1 | G = 0 | H = .

O=C(O)CNC(=O)/C(=C/c1cccc([N+](=O)[O-])c1)NC(=O)c1ccco1
  A = -8 | B = . | C = 4 | D = 5 | E = i | F = 4 | G = 4 | H = 2

CCc1ccc(S(=O)(=O)Nc2cccc(-c3ccc4nnc(C)n4n3)c2)s1
  A = -3 | B = 12 | C = . | D = -1 | E = i | F = 13 | G = 5 | H = .

Oc1ccccc1CN1CCCC(N2CCN(c3cccc(C(F)(F)F)c3)CC2)C1 (stereo unspecified)
  A = 10 | B = . | C = 0 | D = 16 | E = i | F = -1 | G = -2 | H = 10

N#Cc1c(SCC(=O)N2CCCCC2)nsc1SCC(=O)N1CCCCC1
  A = -17 | B = -4 | C = 7 | D = 23 | E = i | F = -2 | G = -6 | H = 8

N#CCCn1c2ccccc2c2nc3ccccc3nc21
  A = -11 | B = -5 | C = 3 | D = . | E = i | F = -2 | G = -1 | H = 16

Cc1ccc(CNC(=O)CSc2nc(C)cc(C)c2C#N)cc1
  A = -4 | B = -5 | C = 1 | D = -55 | E = . | F = -3 | G = -2 | H = 9

COc1ccc(OC)c(S(=O)(=O)N(C)CC(=O)N2CCc3ccccc3C2)c1
  A = -13 | B = -12 | C = -3 | D = . | E = i | F = 1 | G = 1 | H = 6

O=C(N/N=C/c1ccc2c(c1)OCO2)C(=O)Nc1ccccc1
  A = -23 | B = . | C = -8 | D = -13 | E = i | F = 1 | G = 3 | H = 0

Rows were taken by chance. About 2.9% of those tested had a hit in this group.
